FGF22 binding: binders of human FGF22 protein, primary screen, FGF22 synaptogenesis inhibitor project, biophysical, thermal shift, single point. AID 651658, 2012. recombinant FGF22 thermal shift, SYPRO orange fluorescence; percent of sucrose octasulfate shift, DMSO zero. 340,000 tested, 1.5% active. calls only at 9.99 µM;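 active means melting point raised past a set limit in the mean and every replicate; inconclusive means no clear call; three in four hits are not shown here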
Target sequence (Q9HCT0 whole entry, looked up): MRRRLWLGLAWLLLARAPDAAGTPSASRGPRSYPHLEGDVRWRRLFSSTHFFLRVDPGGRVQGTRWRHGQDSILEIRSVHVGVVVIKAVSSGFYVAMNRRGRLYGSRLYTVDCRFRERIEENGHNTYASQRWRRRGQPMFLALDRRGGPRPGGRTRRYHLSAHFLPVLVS
Calb FLC: C. albicans growth inhibition with fluconazole, primary screen, CaCi-2 strain, Alamar Blue fluorescence; C. albicans CaCi-2 (fluconazole-resistant clinical isolate) + fluconazole, 48 h; growth inhibition, % (concentration not given with the values); 300,000 tested, 0.57% active; AID 1979, 2009;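 active means most replicates above 75%; inconclusive means exactly half above 75%; inactive means most below 75%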;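 further: all wells also contain fluconazole at 8 µg/ml as a sub-toxic cotreatment; 0% = median of DMSO wells and 100% = median of geldanamycin control wells; wells of about 8 µL received 7.5 nL stock; the first replicate is given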
RanGTP-Impb inh: inhibitors of RanGTP-importin-beta interaction, primary screen, biochemical, FRET, CFP-Ran, YFP-importin-beta, homogeneous; Ran GTPase (GTP-bound) - importin-beta complex; cell-free CFP-Ran/YFP-importin-beta FRET ratio; inhibition, % (test concentration not listed); 300,000 tested, 1.1% active; AID 2216, 2009;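 active means most replicates above 15%; inconclusive means exactly half above 15%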;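 further: 0% = DMSO wells and 100% = Ran loaded with GDP instead of GTP; wells of about 40 µL received 100 nL stock; the first replicate is given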
Beta cell apopt: inhibitors of cytokine-induced beta cell apoptosis, primary screen, luminescence; INS-1E cytokine-induced death, ATP luminescence, 48 h; percent of positive-control rescue, neutral wells zero; protection from apoptosis, % (no concentration beside the values); 300,000 tested, 0.8% active;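 active means all replicates at 75% or more, or half of them and the mean; inconclusive means half reach 75% but not the mean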;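 further: 0% = cytokine-treated negative control wells and 100% = positive control rescue; higher means more ATP so stronger rescue from cytokine killing; wells of about 40 µL received 100 nL stock; the first replicate is given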
ALR inh: inhibitors of human ALR sulfhydryl oxidase, primary screen, biochemical, H2O2 detection, HRP-luminol luminescence, single point | inhibition, % (test concentration not listed) | purified ALR, DTT oxidation | AID 485317, 2010 | 290,000 tested, 3.8% active;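 active means mean and each replicate at 75% or more; inconclusive means only one of the two met; inactive means neither met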;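 further: stock transfer was 7.5 nL into about 7.5 µL; 0% = neutral wells and 100% = wells with inactivated enzyme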
Target sequence (P55789 whole entry, looked up): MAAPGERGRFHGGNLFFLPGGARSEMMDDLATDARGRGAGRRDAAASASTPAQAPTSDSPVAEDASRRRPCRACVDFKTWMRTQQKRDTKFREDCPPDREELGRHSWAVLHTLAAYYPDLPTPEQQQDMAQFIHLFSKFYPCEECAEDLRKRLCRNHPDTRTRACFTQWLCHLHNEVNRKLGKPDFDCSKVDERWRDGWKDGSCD
MLL AF4-AF9 inh: inhibitors of AF4 peptide binding to AF9, primary screen, biochemical, AlphaScreen, biotin-AF4 peptide, FLAG-AF9, single point. Protein AF-9 (Homo sapiens), P42568. inhibition, % at 10 µM. 350,000 tested, 0.47% active. AID 651704, 2012;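 active means every replicate reaching a set inhibition limit, whatever the replicate mean, cut at about 25% in these data; inconclusive means mean inhibition reaches that limit but some replicates miss it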;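 further: 0% = plate neutral control median and 100% = total signal loss; the record names both 10 and 1 µM as test concentration; the first replicate is given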
Target sequence (P42568 whole entry, looked up): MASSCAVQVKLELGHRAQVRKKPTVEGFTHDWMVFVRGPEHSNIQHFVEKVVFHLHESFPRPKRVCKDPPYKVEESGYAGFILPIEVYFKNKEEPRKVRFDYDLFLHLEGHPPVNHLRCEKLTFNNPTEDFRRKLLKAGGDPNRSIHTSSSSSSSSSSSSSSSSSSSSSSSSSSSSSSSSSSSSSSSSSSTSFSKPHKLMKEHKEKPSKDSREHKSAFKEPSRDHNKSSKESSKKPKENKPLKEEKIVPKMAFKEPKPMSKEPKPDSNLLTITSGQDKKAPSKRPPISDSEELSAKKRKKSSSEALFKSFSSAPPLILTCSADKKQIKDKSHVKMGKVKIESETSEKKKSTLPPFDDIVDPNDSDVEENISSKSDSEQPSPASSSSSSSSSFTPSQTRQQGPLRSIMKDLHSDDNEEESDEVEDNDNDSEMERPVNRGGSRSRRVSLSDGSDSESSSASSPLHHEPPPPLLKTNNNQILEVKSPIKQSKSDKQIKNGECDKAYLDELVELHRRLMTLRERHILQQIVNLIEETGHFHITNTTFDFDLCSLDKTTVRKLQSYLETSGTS
Ecoli rRNA inh: reduced GFP signal of wild-type E. coli, primary screen, bacterial rRNA inhibitor project, GFP/RFP fluorescence, OD600, single point; GFP signal change (wild-type ribosome), % (concentration not given with the values); 350,000 tested, 1.6% active; E. coli WT GFP vs humanized-ribosome RFP mutants, 24 h; active compounds read low; DMSO median 0, no signal -100;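 active means significant combined selectivity score with lowered wild-type GFP, culture density cut under 30%, mutant RFP and density less affected; inactive means any of these conditions unmet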; further: one replicate is shown; some compounds called inactive have numbers as strong as hits
T cruzi repl: inhibitors of intracellular T. cruzi growth, primary screen, luminescence, NIH3T3 host cells; T. cruzi beta-gal in NIH3T3, 90 h; inhibition, % (no concentration beside the values); 300,000 tested, 1.4% active; AID 1885, 2009;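 active means mean inhibition across valid replicates above about 55%, limit read from the data; inconclusive means mean below that limit but half or more replicates reach it; inactive means mean below it, under half of replicates reach it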;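 further: signal also drops with host cell toxicity which is not excluded here; 0% = plate median of DMSO wells and 100% = zero luminescence signal; higher percent means less beta-gal luminescence so fewer parasites; stock transfer was 50 nL into about 50 µL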
Ecoli rRNA inh OD600: also measured in Ecoli rRNA inh; calls as there; OD600 change, %; measured here: OD600 growth;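 optical density of the mix in the first replicate; 0 = DMSO median and -100 = no signal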
Ecoli rRNA inh RFP: further read-out of Ecoli rRNA inh, marked with its call; RFP signal change, %; measured here: RFP humanized mutant strains;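 first replicate; 0 = DMSO median and -100 = no signal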
* = called active by the depositor; i = inactive; ? = inconclusive; . = not tested or not shown; & = joins results of further samples. Some of the compounds tested (hit frequency here may not be typical).

#1 COc1cccc(C(=O)N2CCN(C3CCCCC3)CC2)c1
#2 CCn1c(SCC(=O)NC(C)c2ccccc2)nc2ccccc21 (stereo not drawn)
#3 Cc1cc2ccccc2nc1Br
#4 CCOC(=O)C(Cc1ccccc1)NC(=O)CCc1c(C)nc2nc(C)nn2c1C (stereo not drawn)
#5 COc1ccc(NC(=O)C2CCCN(S(C)(=O)=O)C2)cc1OC (stereo not drawn)
#6 CCN(CC)c1ccc(/C=N/NC(=O)c2ccc3nc[nH]c3c2)c(O)c1
#7 Cn1c2ccccc2c(=O)c2cc(C#Cc3ccc(N)cc3)ccc21
#8 COc1ccc(NCC(=O)N/N=C/C=C/c2ccccc2[N+](=O)[O-])cc1
compound no.	1	2	3	4	5	6	7	8
Beta cell apopt	-16	0	2	-1	0	116*	0	-4
RanGTP-Impb inh	-2.5	-0.7	-0.4	-0.8	1.9	38*	50*	-1.2
FGF22 binding	i	i	i	.	i	.	.	i
T cruzi repl	12	-9	-16	-2	21	10	46	1
Ecoli rRNA inh OD600	2	-24	12	.	12	.	.	7
Ecoli rRNA inh RFP	-0.2	-6.6	-2.3	.	0.9	.	.	-0.6
ALR inh	-1	-11	-15	-8	4	97*	-6	16
Ecoli rRNA inh	8	-27	11	.	12	.	.	-3
Calb FLC	11	-21	?	-3	11	109*	-32	-22
MLL AF4-AF9 inh	0.2	-55	4.5	.	1.5	.	.	-1.0

Gathered by group, those above with sulfur
#2 CCn1c(SCC(=O)NC(C)c2ccccc2)nc2ccccc21 (stereo not drawn)
#5 COc1ccc(NC(=O)C2CCCN(S(C)(=O)=O)C2)cc1OC (stereo not drawn)
compound no.	2	5
Beta cell apopt	0	0
RanGTP-Impb inh	-0.7	1.9
FGF22 binding	i	i
T cruzi repl	-9	21
Ecoli rRNA inh OD600	-24	12
Ecoli rRNA inh RFP	-6.6	0.9
ALR inh	-11	4
Ecoli rRNA inh	-27	12
Calb FLC	-21	11
MLL AF4-AF9 inh	-55	1.5

Other structures:
#9 COc1ccc(OCCSc2nc(N)cc(N)n2)cc1
#10 COc1cc(C(=O)N2CCCC(c3nc(-c4cccs4)no3)C2)cc(OC)c1OC (stereo not drawn)
#11 Cc1cc(C)cc(NC(=S)N2CC(C)OC(C)C2)c1 (stereo not drawn)
#12 COc1ccc(-c2ccc(-c3nc4ccc(C)cn4c3NC3CCCCC3)cc2OC)cc1
#13 O=C(CCNc1n[nH]c(=O)[nH]c1=O)N1CCOCC1
#14 Cc1ccc(NC(=O)c2cnc(N3CCN(c4ccccn4)CC3)c3ccccc23)c(Br)c1
#15 COc1cc(CCC(=O)NCc2ccc(Cl)cc2)cc(OC)c1OC
#16 COc1ccccc1C(=O)NCC(c1cccnc1)N(C)C (stereo not drawn)
compound no.	9	10	11	12	13	14	15	16
Beta cell apopt	9	2	-1	.	0	32	-3	-2
RanGTP-Impb inh	1.3	5.5	.	0.6	4.6	-0.5	-3.1	2.5
FGF22 binding	.	.	i	i	.	i	i	.
T cruzi repl	-7	0	.	46	-7	39	-1	-18
Ecoli rRNA inh OD600	.	.	15	24	.	2	4	14
Ecoli rRNA inh RFP	.	.	-0.2	31	.	-0.9	-7.3	1.0
ALR inh	-19	7	-5	4	-14	-1	.	20
Ecoli rRNA inh	.	.	6	-9	.	1	17	12
Calb FLC	7	-5	1	-1	13	3	6	34
MLL AF4-AF9 inh	.	.	-6.1	0.9&9.5	.	-1.6	-3.8	.

Next part, starting with the last 2 of the part before.
#15 COc1cc(CCC(=O)NCc2ccc(Cl)cc2)cc(OC)c1OC
#16 COc1ccccc1C(=O)NCC(c1cccnc1)N(C)C (stereo not drawn)
#17 Cc1cc(Cl)c(S(=O)(=O)NC2CCCC2)cc1OCC(N)=O
#18 CCCCC(=O)Nc1nc(C)c(C(C)=O)s1
#19 Cc1c(-c2ccccc2)cnc2c(C)cccc12
#20 COCCN1C(=O)c2cc(C(=O)Nc3ccc(C)c(F)c3)ccc2C1Nc1ccc(C)c(F)c1 (stereo not drawn)
#21 COc1ccc(NC(=S)N(CCc2c(C)[nH]c3ccccc23)Cc2ccco2)cc1
#22 CCOC(=O)CNC(=O)C1COc2ccccc2O1 (stereo not drawn)
#23 CS(=O)(=O)c1ccc2nc(NC(=O)C3CC(=O)N(c4ccccc4)C3)sc2c1 (stereo not drawn)
#24 CCc1ccc(N2C(=O)CC(N(CC3CCCO3)C(=O)/C=C/C(=O)O)C2=O)cc1 (stereo not drawn)
compound no.	15	16	17	18	19	20	21	22	23	24
Beta cell apopt	-3	-2	2	-4	2	9	-5	-15	-7	-1
RanGTP-Impb inh	-3.1	2.5	.	-1.7	-3.4	-0.6	-3.8	5.0	1.9	-1.2
FGF22 binding	i	.	i	i	i	i	i	i	i	.
T cruzi repl	-1	-18	-5	-3	-11	0	-1	0	-11	-15
Ecoli rRNA inh OD600	4	14	-1	1	7	12	2	8	-21	.
Ecoli rRNA inh RFP	-7.3	1.0	-1.8	-2.6	-4.1	-2.8	3.4	-0.2	-5.0	.
ALR inh	.	20	-3	11	-2	-9	.	-12	-2	-2
Ecoli rRNA inh	17	12	-1	8	13	-4	1	6	-17	.
Calb FLC	6	34	.	15	-10	-3	-6	-2	-17	-1
MLL AF4-AF9 inh	-3.8	.	3.1	-1.5	0.5	-5.2	2.8	0.8	-1.3	.

#25 CCCn1c(CNS(=O)(=O)c2ccc(C)cc2)nc2ccccc21
#26 CC(C)N(C(=O)COC(=O)[C@@H]1CC(O)CN1S(=O)(=O)c1ccccc1[N+](=O)[O-])C(C)C (stereo partly drawn)
#27 O=C(C(Cc1ccccc1)n1cccc1)N1CCCCCC1 (stereo not drawn)
#28 Cc1cc(Cl)n2c(nc3ccccc32)c1C#N
#29 O=C(OCC(=O)c1cccs1)c1ccc([N+](=O)[O-])o1
#30 COc1cc(C(=O)NNC(=O)c2ccc(NC(=O)C(C)(C)C)cc2)cc(OC)c1OC
#31 C=CC[C@H](CC(=O)N(CCO)Cc1ccccc1)C(=O)N[C@H](COC(=O)[C@@H](CC=C)CC(=O)OC(C)(C)C)Cc1c[nH]c2ccccc12
#32 COc1ccc(-c2csc3ncnc(N4CCN(c5cccc(Cl)c5)CC4)c23)cc1
compound no.	25	26	27	28	29	30	31	32
Beta cell apopt	3	-4	-3	.	0	2	-7	17
RanGTP-Impb inh	-2.3	1.4	-0.2	?	23	-5.1	.	-1.6
FGF22 binding	i	.	i	i	i	i	i	.
T cruzi repl	9	-6	5	71*	20	-12	.	43
Ecoli rRNA inh OD600	-10	.	-7	-2	6	0	2	.
Ecoli rRNA inh RFP	-2.1	.	1.3	-7.7	1.8	1.2	1.1	.
ALR inh	-5	-1	-24	.	-19	.	5	1
Ecoli rRNA inh	11	.	-2	2	10	8	5	.
Calb FLC	7	-12	-9	94*	-8	-3	.	-9
MLL AF4-AF9 inh	3.8	.	0.7	-0.3	-9.9	-18	-0.7	.

#33 COc1ccc(-c2cc(C(=O)OCC(=O)Nc3ccc4c(c3)OCO4)c3ccccc3n2)cc1
#34 O=C1CN(C(=O)COC(=O)CCc2ccccc2O)c2ccccc2N1
#35 O=S(=O)(c1ccccc1)N1CCCN(S(=O)(=O)c2ccccc2)CC1
#36 CCc1ccccc1OCC(=O)OCC(=O)c1c(N)n(C)c(=O)n(C)c1=O
#37 Nn1c(COc2ccccc2F)nnc1SCC(=O)NC1CCCC1
#38 COc1ccnc(Oc2ccccc2)c1C#N
#39 C[C@H]1O[C@H]1P(=O)(O)O
#40 O=C1CCC(c2ccccc2)c2ccccc21 (stereo not drawn)
compound no.	33	34	35	36	37	38	39	40
Beta cell apopt	-3	-23	-13	1	-3	-1	.	-2
RanGTP-Impb inh	-3.3	.	2.4	-1.6	4.6	-2.3	5.8	11
FGF22 binding	i	i	i	i	i	.	i	i
T cruzi repl	15	.	1	-19	-9	-20	4	-3
Ecoli rRNA inh OD600	1	4	-4	-19	15	4	7	9
Ecoli rRNA inh RFP	-0.3	1.4	-1.4	-0.6	-1.5	-2.5	-1.2	-2.8
ALR inh	-5	25	-13	1	-4	-3	.	-2
Ecoli rRNA inh	4	4	-7	-19	11	1	1	1
Calb FLC	-17	.	-2	62	7	15	-4	0
MLL AF4-AF9 inh	-2.0	4.0	-0.8	-5.3	-1.7	.	-3.3	-2.7

#41 CN(Cc1ccccn1)C(=O)CC1C(=O)NCCN1Cc1ccc(F)cc1Cl (stereo not drawn)
#42 O=C(COC(=O)Cc1c(Cl)cccc1Cl)NCCC1=CCCCC1
#43 O=C(Nc1c(Cl)ccc2nsnc12)c1cccnc1
#44 O=C(NC1CCN(C(=S)Nc2ccccc2)CC1)C1CCCCC1
#45 Nc1ccc(S(=O)(=O)N2CCC(Cc3ccccc3)CC2)cc1
#46 C/C(CC(=O)NCCN1CCOCC1)=N\NC(=O)c1ccncc1
#47 N#C/C(=C\c1cccs1)C(=O)c1ccccc1
#48 CC(=O)OCC(=O)Nc1c(C)cccc1C
#49 CCOc1ccccc1NC(=O)Cn1c(=O)c(OCC)nc2cnccc21
compound no.	41	42	43	44	45	46	47	48	49
Beta cell apopt	-3	-2	-9	-7	0	-10	3	-1	-1
RanGTP-Impb inh	-3.7	?	-1.3	3.3	0.5	-1.9	-2.2	1.9	?
FGF22 binding	i	i	i	i	i	i	i	i	.
T cruzi repl	0	-2	-15	-6	10	-7	-17	-29	-6
Ecoli rRNA inh OD600	10	-37	16	18	-55	13	16	8	.
Ecoli rRNA inh RFP	1.4	-12	3.4	-0.6	-4.6	2.6	15	1.8	.
ALR inh	-45	-1	-19	-1	3	3	62	3	-7
Ecoli rRNA inh	15	-24	8	10	-12	14	-11	1	.
Calb FLC	0	-19	2	-3	-10	-5	-8	-13	27
MLL AF4-AF9 inh	-0.6	2.0	-3.5	0.8	-1.5	-2.7	5.8	0.6	.

Source: PubChem BioAssay (Broad Institute)
